Screening results deposited in PubChem by Broad Institute.
Vaccinia inh – Vaccinia orthopox stage-specific inhibition; 89,000 tested, 0.01% active; Vaccinia-infected cells, mCherry/Venus stage reporter fluorescence; hits give low values; some inactives read as strong as hits; activity change (mCherry), % (concentration not given with the values); AID 1053133;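 active means mCherry past -33% and 40 or more points under the early reporter, replicates agreeing; inconclusive means past -33% without that gap or agreement; tested in A549 cells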;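 further: scaled between vehicle wells and reference inhibitor wells; 23 nL library stock went into each well; one replicate is shown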
Vaccinia inh Venus – further read-out of Vaccinia inh, marked with its call; activity change (Venus), %; measured here: Venus reporter, other viral stage;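 negative = less Venus signal; first of two replicates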
Numbers without * were called inactive; u = inconclusive; x = not tested or not shown; & = joins results of further samples.

SMILES | Vaccinia inh | Vaccinia inh Venus
O=C(C[C@@H]1C=C[C@@H](NC(=O)Cc2ccccn2)[C@H](CO)O1)NCCc1ccccc1 | -9 | 1
O=C(Nc1cccc(Cl)c1)N1C[C@@H]2[C@H](c3ccccc31)[C@@H](CO)N2Cc1cccnc1 | 2 | 0
CCS(=O)(=O)N1CC2(C1)[C@H](c1ccccc1)[C@@H](CO)N2CCC(F)(F)F | 4 | 5
CN1C(=O)c2cc(NC(=O)C3CC3)ccc2OC[C@@H]2O[C@@H](CC(=O)NCC3CCCCC3)CC[C@@H]21 | 13 | 10
CC(C)NC(=O)Nc1ccc2c(c1)C(=O)N([C@@H](C)CO)C[C@@H](C)[C@@H](CN(C)C(=O)Nc1cccc3ccccc13)OCCCC[C@@H](C)O2 | u | x
C[C@@H]1CCCCO[C@@H](CN(C)S(=O)(=O)c2ccccc2)[C@@H](C)CN([C@@H](C)CO)C(=O)c2cc(NC(=O)Nc3ccc(C(F)(F)F)cc3)ccc2O1 | 32 | 12
CC(=O)N1[C@@H]2Cn3c(ccc(-c4ccccc4F)c3=O)[C@H]1[C@@H](C(=O)N1CCOCC1)[C@@H]2CO | 6 | -1
Cc1ccc(S(=O)(=O)N(C)C[C@H]2Oc3ccc(NC(=O)Cc4ccccc4)cc3CC(=O)N([C@@H](C)CO)C[C@@H]2C)cc1 | -12 | -1
CN1CCCCN2[C@H](CO)[C@@H](c3ccc(-c4cccnc4)cc3)[C@@H]2C1 | 2 | 3
CO[C@@H]1CN(C)C(=O)c2cc(NC(=O)C3CCOCC3)ccc2OC[C@H](C)NC[C@H]1C | 5 | 11
C[C@@H](NC(=O)C[C@H]1C[C@H]2c3cc(NC(=O)CN(C)C)ccc3O[C@H]2[C@H](CO)O1)c1ccccc1 | 8 | 11
CC=Cc1ccc2n(c1=O)C[C@H]1[C@H](CO)[C@@H](C(=O)NCCC)N(C(=O)c3cccnc3)[C@@H]21 (mixture of isomers) | 10 | 7
COC(=O)C[C@@H]1CC[C@H]2[C@@H](COc3ccc(NC(=O)c4ccc(C(F)(F)F)cc4)cc3C(=O)N2C)O1 | -2 | -8
C[C@H](O)C#Cc1cnc2c(c1)C(=O)N([C@H](C)CO)C[C@H](C)[C@H](CN(C)C(=O)Nc1ccc(C(F)(F)F)cc1)O2 | 12 | 5
CC(C)C#Cc1ccc([C@@H]2[C@@H](C#N)N(C(=O)c3ccccn3)[C@@H]2CO)cc1 | 5 | -3
COc1ccc(S(=O)(=O)N[C@H]2C=C[C@@H](CC(=O)N3CCN(c4ccccc4)CC3)O[C@H]2CO)cc1 | 2 | 15
C[C@@H]1CN([C@@H](C)CO)C(=O)c2cc(NS(=O)(=O)c3cccs3)ccc2O[C@@H](C)CCCCO[C@@H]1CN(C)Cc1ccccc1 | u | x
CO[C@H]1CN(C)C(=O)c2ccc(NC(C)=O)cc2OC[C@H](C)N(CCc2ccccc2)C[C@@H]1C | 3 | -1
C[C@H]1CN([C@@H](C)CO)C(=O)Cc2cc(NS(C)(=O)=O)ccc2O[C@H]1CN(C)C(=O)Nc1ccccc1 | 24 | 12
C[C@@H]1CN([C@@H](C)CO)S(=O)(=O)c2ccc(-c3ccc(F)cc3)cc2O[C@@H]1CN(C)C(=O)C1CCOCC1 | -4 | -10
OC[C@H]1[C@@H](c2ccc(C#Cc3cccnc3)cc2)[C@@H]2CN(Cc3ccccc3F)CCCCN12 | u | x
O=C(C[C@H]1C[C@H]2c3cc(NC(=O)Nc4ccccc4)ccc3O[C@H]2[C@@H](CO)O1)NCCN1CCCCC1 | -7 | -7
CO[C@H]1CC[C@@H]2CCN(C)C(=O)[C@@H](C)[C@H](OC)CN(C)C(=O)c3cc(C#N)ccc3OC[C@@H]1O2 | 12 | 5
CCC(=O)N1[C@@H]2c3ccc(C4=CCCC4)c(=O)n3C[C@H]1[C@H](CO)[C@H]2C(=O)N[C@@H](C)c1ccccc1 | 8 | 2
Cc1ccc(S(=O)(=O)Nc2ccc3c(c2)C(=O)N([C@H](C)CO)C[C@H](C)[C@@H](CN(C)CC2CCCCC2)OCCCC[C@@H](C)O3)cc1 | -9 | -13
Continuation.
SMILES | Vaccinia inh | Vaccinia inh Venus
COC(=O)C[C@@H]1CC[C@H]2[C@H](COc3ccc(NC(=O)c4cnccn4)cc3C(=O)N2C)O1 | 19 | 18
C[C@H]1CN([C@@H](C)CO)C(=O)c2cc(NC(=O)C3CC3)ccc2O[C@H]1CN(C)C(=O)Nc1ccc(C(F)(F)F)cc1 | -1 | -1
OC[C@@H]1[C@@H](c2ccc(Br)cc2)[C@@H]2CN(Cc3ccccn3)CCCCN12 | 3 | 4
C[C@@H]1CN([C@H](C)CO)C(=O)c2cccc(NC(=O)NC3CCCCC3)c2O[C@H]1CN(C)Cc1ccc(Cl)c(Cl)c1 | -10 | -5
CCCNC(=O)N1[C@@H](C#N)[C@H](c2ccccc2)[C@@H]1CO | 9 | 10
C[C@@H]1CN([C@H](C)CO)C(=O)c2cc(-c3ccc(F)cc3)cnc2O[C@H]1CN(C)C(=O)NC1CCCC1 | 7 | -1
CCS(=O)(=O)N1CCCCN2[C@@H](CO)[C@@H](c3ccc(-c4ccccc4)cc3)[C@@H]2C1 | 6 | -3
C[C@H](CO)N1C[C@H](C)[C@@H](CN(C)Cc2cccnc2)Oc2ncc(C#CC3(O)CCCC3)cc2C1=O | 17 | 9
C[C@@H]1CN([C@H](C)CO)C(=O)Cc2cc(NS(=O)(=O)c3ccccc3)ccc2O[C@H]1CN(C)C(=O)Nc1ccccc1 | 20 | 12
CO[C@@H](CN(C)S(=O)(=O)c1ccc(Cl)cc1)[C@H](C)CN([C@H](C)CO)S(=O)(=O)c1cccc(Cl)c1 | u | x
O=C(Nc1cccc(Cl)c1)N[C@H]1CC[C@H](CCn2cc(Cc3ccccc3)nn2)O[C@H]1CO | -4 | 3
COc1ccc(S(=O)(=O)Nc2ccc3c(c2)CC(=O)N([C@@H](C)CO)C[C@@H](C)[C@@H](CN(C)Cc2ccc(C(F)(F)F)cc2)O3)cc1 | u | x
COc1cccc(C(=O)Nc2ccc3c(c2)OC[C@@H](C)N(C(=O)C2CCC2)C[C@@H](C)[C@H](OC)CN(C)C3=O)c1 | -12 | -11
C[C@@H]1CN([C@H](C)CO)C(=O)c2cc(NC(=O)Nc3ccccc3)ccc2O[C@@H](C)CCCCO[C@H]1CN(C)Cc1ccc(Cl)c(Cl)c1 | u | x
CCCN(C)C[C@@H]1OCCCC[C@H](C)Oc2ccc(NC(=O)Nc3ccc(F)cc3)cc2C(=O)N([C@@H](C)CO)C[C@@H]1C | u | x
COc1ccc(NC(=O)N(C)C[C@H]2Oc3ccc(NC(=O)CCN4CCOCC4)cc3CC(=O)N([C@@H](C)CO)C[C@@H]2C)cc1 | 13 | 15
COc1ccc(S(=O)(=O)N(C)C[C@@H]2OCc3cn(nn3)CCCC(=O)N([C@H](C)CO)C[C@H]2C)cc1 | 12&7 | 4&4
Cc1noc(C)c1S(=O)(=O)Nc1ccc2c(c1)CC(=O)N([C@H](C)CO)C[C@H](C)[C@H](CN(C)S(=O)(=O)c1cn(C)cn1)O2 | 23 | 14
O=C(O)C[C@H]1C[C@@H]2c3cc(NC(=O)Nc4ccccc4)ccc3O[C@@H]2[C@@H](CO)O1 | -6 | -8
C[C@@H]1CCCCO[C@H](CN(C)C(=O)c2ccncc2)[C@H](C)CN([C@@H](C)CO)C(=O)c2cc(NS(=O)(=O)c3ccccc3)ccc2O1 | 19 | 6
CCCC#Cc1cnc2c(c1)C(=O)N([C@@H](C)CO)C[C@@H](C)[C@H](CN(C)C(=O)NCCC)O2 | 9 | 1
C[C@@H]1CN([C@@H](C)CO)C(=O)Cc2cc(NC(=O)Cn3cnnn3)ccc2O[C@H]1CN(C)Cc1ccc(C(=O)Nc2ccccc2N)cc1 | 0 | -2
Cc1ccc(S(=O)(=O)Nc2ccc3c(c2)C(=O)N([C@@H](C)CO)C[C@H](C)[C@H](CN(C)Cc2ccc(C(F)(F)F)cc2)OCCCC[C@H](C)O3)cc1 | u | x
C=CCNC(=O)[C@@H]1[C@H]2C(=O)O[C@H](c3ccccc3)[C@H](c3ccccc3)N2[C@H](c2ccc(OCCO)cc2)[C@@]12C(=O)N(C(=O)OCCOC)c1ccc(C#Cc3ccc(OC)cc3)cc12 | 17 | 12
C[C@H](CO)N1C[C@H](C)[C@H](CN(C)Cc2ccc(C(=O)O)cc2)Oc2ccc(NC(=O)CCN3CCOCC3)cc2C1=O | -3 | 0

Ordered by SMILES length (highest first): 10 of the compounds above.
SMILES | Vaccinia inh | Vaccinia inh Venus
C=CCNC(=O)[C@@H]1[C@H]2C(=O)O[C@H](c3ccccc3)[C@H](c3ccccc3)N2[C@H](c2ccc(OCCO)cc2)[C@@]12C(=O)N(C(=O)OCCOC)c1ccc(C#Cc3ccc(OC)cc3)cc12 | 17 | 12
COc1ccc(S(=O)(=O)Nc2ccc3c(c2)CC(=O)N([C@@H](C)CO)C[C@@H](C)[C@@H](CN(C)Cc2ccc(C(F)(F)F)cc2)O3)cc1 | u | x
C[C@H]1CN([C@@H](C)CO)C(=O)c2cc(NC(=O)C3CC3)ccc2O[C@H]1CN(C)C(=O)Nc1ccc(C(F)(F)F)cc1 | -1 | -1
C[C@@H]1CN([C@H](C)CO)C(=O)Cc2cc(NS(=O)(=O)c3ccccc3)ccc2O[C@H]1CN(C)C(=O)Nc1ccccc1 | 20 | 12
C[C@H](CO)N1C[C@H](C)[C@H](CN(C)Cc2ccc(C(=O)O)cc2)Oc2ccc(NC(=O)CCN3CCOCC3)cc2C1=O | -3 | 0
C[C@@H]1CN([C@H](C)CO)C(=O)c2cc(-c3ccc(F)cc3)cnc2O[C@H]1CN(C)C(=O)NC1CCCC1 | 7 | -1
C[C@H](CO)N1C[C@H](C)[C@@H](CN(C)Cc2cccnc2)Oc2ncc(C#CC3(O)CCCC3)cc2C1=O | 17 | 9
CCCC#Cc1cnc2c(c1)C(=O)N([C@@H](C)CO)C[C@@H](C)[C@H](CN(C)C(=O)NCCC)O2 | 9 | 1
O=C(Nc1cccc(Cl)c1)N[C@H]1CC[C@H](CCn2cc(Cc3ccccc3)nn2)O[C@H]1CO | -4 | 3
CCCNC(=O)N1[C@@H](C#N)[C@H](c2ccccc2)[C@@H]1CO | 9 | 10

(cont.)
SMILES | Vaccinia inh | Vaccinia inh Venus
C[C@@H]1CN([C@@H](C)CO)C(=O)c2cccc(NC(=O)Nc3ccc4c(c3)OCO4)c2O[C@@H]1CN(C)C(=O)NC1CCCCC1 | u | x
CCCNC(=O)N1[C@H](CO)[C@H](c2ccccc2)C12CN(C(=O)CC)C2 | 7 | 13
COCC#Cc1ccc2c(c1)O[C@H](CN(C)S(C)(=O)=O)[C@H](C)CN([C@@H](C)CO)S2(=O)=O | 6 | 6
O=C(N[C@@H]1CC[C@@H](CC(=O)N2CCCCC2)O[C@H]1CO)c1cccc(F)c1 | 1 | 7
Cc1cccc(-c2ccc([C@H]3[C@H]4CN(C(=O)c5ccncc5)CCCCN4[C@H]3CO)cc2)c1 | -24 | -24
CCOC(=O)C1=CC[C@@H](c2ccc(OC)cc2)[C@@H]1C(=O)c1ccccc1 | -5 | -8
C[C@@H]1CN([C@@H](C)CO)C(=O)Cc2cc(NC(=O)C3CCCCC3)ccc2O[C@@H]1CN(C)Cc1ccncc1 | 13 | 13
COCC#Cc1cnc2c(c1)C(=O)N([C@H](C)CO)C[C@@H](C)[C@@H](CN(C)C)O2 | 32 | 19
C[C@@H]1CN([C@H](C)CO)S(=O)(=O)c2ccc(C#Cc3cccnc3)cc2O[C@@H]1CN(C)CC1CCOCC1 | 0 | -1
C[C@@H]1CN([C@H](C)CO)C(=O)c2cccc(NC(=O)c3ccncc3)c2O[C@H]1CN(C)Cc1ccc(C(=O)O)cc1 | 14 | 7
CC(C)CC#Cc1ccc2c(c1)O[C@H](CN(C)C(=O)c1cccnc1)[C@H](C)CN([C@H](C)CO)S2(=O)=O | -21 | -22
C[C@H](CO)N1C[C@H](C)[C@H](CN(C)Cc2ccc(C(=O)O)cc2)Oc2ccc(NC(=O)Nc3ccc(F)cc3)cc2C1=O | 18 | 4
C[C@@H]1CN([C@H](C)CO)C(=O)c2cc(NS(=O)(=O)c3ccc(F)cc3)ccc2O[C@H]1CN(C)C(=O)Nc1ccc(F)cc1 | 15 | 10
CNC(=O)C[C@H]1CC[C@@H]2[C@H](COC[C@H](O)CN2S(=O)(=O)c2ccc(Oc3ccccc3)cc2)O1 | -10 | -2
O=C(O)[C@@H]1[C@@H](CO)[C@@H]2Cn3c(ccc(-c4cncnc4)c3=O)[C@@H]2N1C(=O)C1CCC1 | 25 | 16
CCS(=O)(=O)Nc1ccc2c(c1)C(=O)N(C)C[C@H](OC)[C@@H](C)CN(CC1CCCCC1)[C@H](C)CO2 | -33 | -25
Cc1ccc(S(=O)(=O)Nc2ccc3c(c2)CC(=O)N([C@H](C)CO)C[C@H](C)[C@@H](CN(C)Cc2ccc4c(c2)OCO4)O3)cc1 | u | x
O=C(CCN1CCCCC1)N[C@H]1CC[C@H](CC(=O)N2CCC(Cc3ccccc3)CC2)O[C@@H]1CO | -8 | -10
COc1cccc(C#Cc2ccc([C@H]3[C@@H](C#N)N(C(=O)c4ccccn4)[C@@H]3CO)cc2)c1 | u | x
O=C(C[C@@H]1CC[C@H]2[C@@H](COC[C@@H](O)CN2C(=O)Nc2ccc(Cl)c(Cl)c2)O1)NC1CCC1 | -9 | 5
CCC(=O)N1CCCCN2[C@H](CO)[C@@H](c3ccc(-c4ccc(F)cc4)cc3)[C@H]2C1 | -29 | -26
CO[C@@H]1CN(C)C(=O)c2ccc(NC(=O)C3CCC3)cc2OC[C@@H](C)N(Cc2ccncc2)C[C@H]1C | 14 | 15
C[C@@H]1CCCCO[C@@H](CN(C)Cc2ccc3c(c2)OCO3)[C@@H](C)CN([C@@H](C)CO)C(=O)c2cc(NC(=O)CCCN(C)C)ccc2O1 | 3 | 4
C[C@H]1CCCCO[C@H](CN(C)Cc2ccc(C(=O)O)cc2)[C@@H](C)CN([C@@H](C)CO)C(=O)c2cc(NC(=O)Nc3ccccc3)ccc2O1 | 15 | 4
C[C@@H]1CN([C@H](C)CO)C(=O)c2cc(Br)cnc2O[C@@H]1CN(C)S(=O)(=O)c1ccccc1 | 14 | 12

These rows are one share of the data (hit frequency here may not be typical).
